# Source: PubChem
# Arbovirus anti: antivirals against arbovirus infection | arbovirus infection cell-based antiviral screen | inhibition, % at 10 µM | 200,000 tested, 0.37% active;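 active = inhibition from about 30%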;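 also: bluetongue infection of BSR cells; cell survival read as ATP light after 72 h; 0% = infected wells without compound and 100% = uninfected wells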
# Mtb betalactam: beta-lactam sensitization of Mtb H37Rv; M. tuberculosis H37Rv growth with meropenem, percent inhibition; hits of this screen are not shown here; inhibition, % at 25 µM; 330,000 tested, 0.27% active;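 active = about 74% or more and at least 40 points above the plate without the antibiotic, then above 30% in a dose series; inconclusive = first-round hits that could not be retested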;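 also: growth measured after seven days incubation then overnight dye step; 0% = bacteria only wells and 100% = bacteria with antibiotic; twin plates without the antibiotic show which effects depend on it; some results filed as inactive read as strong as hits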
# RecA intein inh: blocks M. tuberculosis RecA intein splicing | P9WHJ3 | cell-free RecA intein splicing, fluorescence | inhibition, %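 (about 9 µM by stock and volumes)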 | 290,000 tested, 0.75% active; in the data active = inhibition above about 30%; inconclusive = no clear call, values can overlap the other calls;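 also: 0% = vehicle wells and 100% = reference inhibitor control wells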
# Target sequence (P9WHJ3 whole entry, looked up): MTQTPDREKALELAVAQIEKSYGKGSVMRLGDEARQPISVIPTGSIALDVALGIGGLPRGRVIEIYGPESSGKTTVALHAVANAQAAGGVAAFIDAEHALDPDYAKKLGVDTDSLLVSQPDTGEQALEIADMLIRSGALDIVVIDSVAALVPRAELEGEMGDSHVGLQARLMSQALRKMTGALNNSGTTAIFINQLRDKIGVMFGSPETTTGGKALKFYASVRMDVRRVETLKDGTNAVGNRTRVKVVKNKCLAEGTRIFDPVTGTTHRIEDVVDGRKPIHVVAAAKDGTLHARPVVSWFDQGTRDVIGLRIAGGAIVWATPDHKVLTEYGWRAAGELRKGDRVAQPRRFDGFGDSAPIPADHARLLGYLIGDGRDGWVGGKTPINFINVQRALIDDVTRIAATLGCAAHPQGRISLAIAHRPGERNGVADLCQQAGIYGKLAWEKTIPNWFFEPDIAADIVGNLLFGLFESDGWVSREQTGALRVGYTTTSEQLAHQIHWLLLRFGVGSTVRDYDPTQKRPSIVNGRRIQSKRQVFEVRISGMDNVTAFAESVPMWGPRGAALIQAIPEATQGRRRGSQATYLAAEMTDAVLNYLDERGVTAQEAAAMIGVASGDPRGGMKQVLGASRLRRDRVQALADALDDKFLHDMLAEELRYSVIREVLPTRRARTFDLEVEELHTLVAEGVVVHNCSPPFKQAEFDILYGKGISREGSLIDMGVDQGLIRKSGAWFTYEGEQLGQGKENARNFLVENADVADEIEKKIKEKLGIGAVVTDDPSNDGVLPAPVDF
# Mtb H37Rv: M. tuberculosis H37Rv growth inhibitors, H37Rv strain (AID 1626). M. tuberculosis H37Rv growth inhibition; higher % means a stronger effect. one-dose inhibition, % at 10 µM; IC50 in µM for titrated hits. 220,000 tested, 0.95% active;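 active = confirmed in a dose series; inconclusive = inhibition above 80% but not taken into the dose series; inactive = below 80% or under 30% at every dose of the series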;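 also: bacteria incubated seven days before Alamar blue readout; 0% = bacteria only wells and 100% = bacteria with antibiotic wells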
# YopH PTP inh: blocks Yersinia enterocolitica YopH tyrosine phosphatase; fluorescence Ex485/Em525; inhibition, %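 (about 10 µM by stock and volumes)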; 140,000 tested, 0.16% active; AID 898;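 active = inhibition of 50% or more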;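 also: controls were vehicle for no effect and minimum signal wells for full effect; inactives centre near -20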
# Arbovirus anti repeat: second read-out of Arbovirus anti, no call of its own (marks repeat the call); inhibition, %; measured here: 10K subset replicate screen; many hits read low in the repeat;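 first of two repeat runs on a subset; 0% = infected and 100% = uninfected wells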
# An asterisk follows results filed as active; ? = inconclusive; . = no result given.
SMILES,Arbovirus anti,Mtb betalactam,RecA intein inh,Mtb H37Rv,YopH PTP inh,others
COc1ccc(COc2cc(-c3cccc(OC)c3)nc3ccc(N)cc23)cc1,-26,73,-146,-4%,-19,
COCCCNC(=O)CCCC(=O)NCCCOC,11,4,-1.7,-7%,55*,
Nc1ncc2c(n1)-c1ccoc1CC2,.,3,-3.6,.,.,
CC(C)(C)c1nc2c(s1)CCc1onc(-c3ccc(Br)cc3)c1-2,.,-9,1.6,-2%,.,
Cc1ccc([N+](=O)[O-])cc1NC(=S)NC(=O)c1ccco1,-20,-1,5.2,-12%,-29,
Cc1cc(C(=O)NNc2ccc(F)cc2)no1,.,95,-0.8,47%,.,
COc1ccc([N+](=O)[O-])cc1NC(=O)c1cccs1,12,0,-3.2,-3%,.,
O=[N+]([O-])c1ccc(S(=O)(=O)NCCN2CCOCC2)cc1,3,-5,-1.1,6%,.,
CCC(=O)Nc1ccc2c(c1)OCCO2,2,-7,.,2%,-4,
CCOC(=O)CNS(=O)(=O)c1cc(-c2nnc(Nc3ccc4c(c3)OCO4)c3ccccc23)ccc1C,-22,5,-2.0,-9%,1,
O=C(O)C1C2C=CC(C2)C1C(=O)NCCCN1CCOCC1 (stereo unspecified),-1,-10,1.1,-4%,-41,
O=C(O)C(Cc1ccccc1)N1C(=O)c2ccccc2C1=O (stereo unspecified),5,7,1.1,-10%,-14,
CCOc1cc(/C=N/NC(=O)c2cc(-c3cccnc3)nc3ccccc23)ccc1O,-2,-2,-1.9,6%,.,
CC(C(=O)NC(C)(C)C)N1C(=O)c2cccc3cccc(c23)C1=O (stereo unspecified),6,-1,-0.8,0%,.,
O=C(Nc1nccs1)c1cccc(S(=O)(=O)N2CCCC2)c1,.,-4,-3.3,.,.,
C=CCc1cc(C=C2C(=O)NC(=O)NC2=O)cc(OC)c1OCc1ccc(C(=O)O)cc1,8,0,-3.0,-4%,.,
Cc1ccccc1/C=C/c1nc2ccccc2c(=O)n1Cc1ccccc1,1,1,1.7,9%,-5,
COc1cc(/C=C/C(=O)O)cc(S(=O)(=O)NCCO)c1OC,9,5,-1.1,-4%,-3,
CC(Oc1ccccc1)c1ccnn1S(C)(=O)=O (stereo unspecified),6,-17,-1.4,-3%,-27,
O=C(c1ccccn1)N(c1ccccc1)C1(C(=O)NC2CCCCC2)CCCCC1,11,-8,0.9,2%,.,
CN1CCC2(CC1)N=C(c1ccc(F)cc1)C(=S)N2,-8,3,-1.7,0%,.,
O=C1CN(c2ccccc2F)C(=O)CN1c1ccccc1F,2,0,0.4,-2%,-20,
O=C(NCc1cn2ccccc2n1)c1ccc(Br)o1,9,-5,7.7,1%,-48,Arbovirus anti repeat=-2
CCC1CCCCN1CCCNC(=O)c1cn(C)c2ccc(S(=O)(=O)N3CCOCC3)cc2c1=O (stereo unspecified),.,-10,1.0,.,.,
O=C(O)CCCc1ccccc1,6,1,-3.5,.,-19,

# Going on with the list.
SMILES,Arbovirus anti,Mtb betalactam,RecA intein inh,Mtb H37Rv,YopH PTP inh,others
Cc1ccsc1-c1n[nH]c(=S)n1CC(C)C,2,-7,0.0,2%,-43,
O=C(CNC(=O)COc1ccccc1)NCCc1ccccn1,3,-13,2.5,-9%,.,
O=C(COc1ccccc1)NCC(=O)N/N=C/c1ccc(Br)cc1,.,5,-1.7,.,.,
CC(Sc1nnc(-c2cccs2)n1Cc1ccccc1)C(=O)NCc1ccc2c(c1)OCO2 (stereo unspecified),-17,-19,0.3,8%,-6,
CCCNC(=O)Nc1ccc2c(c1)N(C)C(=O)c1ccccc1S2,-8,-4,-5.4,-1%,-4,
CCOC(=O)c1c(OCCO)noc1N,4,4,7.4,3%,.,
Cc1ccnc(NC(=O)c2cc([N+](=O)[O-])cc([N+](=O)[O-])c2)c1,1,94,-0.3,54%,.,
COC(=O)c1ccc(NCCC(=O)O)cc1,7,-3,-3.7,5%,-37,
O=C1CCCN1c1ccc(S(=O)(=O)NCCc2ccc(Cl)cc2)cc1,5,-3,-0.4,5%,-7,
CCN1CCN(Cc2coc3ccc(C)cc3c2=O)CC1,3,-4,1.4,-6%,-35,
COc1ccc(CC(=O)OCC(=O)Nc2cc(S(=O)(=O)N3CCOCC3)ccc2N2CCCC2)cc1,18,8,-0.8,3%,.,
CCOc1ccc(C(=O)NCC(=O)NC(C)c2ccc(-n3ccnc3)cc2)cc1OCC (stereo unspecified),.,-25,0.4,.,.,
COC(=O)c1cccc(NC(=O)/C=C/c2ccc3c(c2)OCO3)c1,-28,47,-0.5,5%,-25,
Cc1ccc(NC(=O)C2C3CCCCC32)cc1[N+](=O)[O-] (stereo unspecified),.,3,-1.6,.,.,
Cc1ccc(C2=NS(=O)(=O)N(C)C(C(=O)NCc3ccccc3)=C2)cc1,.,4,-6.7,.,.,
COCC1CCCN(C(=O)c2cc(COc3ccc4ncccc4c3)on2)C1 (stereo unspecified),.,-1,-0.2,.,.,
O=Cc1ccc2cccnc2n1,-3,-3,1.0,11%,.,
CCOc1ccccc1NC(=O)NC(=O)N(C)S(=O)(=O)c1ccc(C)cc1,7,13,3.1,15%,.,
CCn1cc(CNC(=O)NC2CCCCC2)c(C)n1,-7,5,1.3,-4%,-28,
O=C(CCN1CCc2ccccc2C1)c1ccc2c(c1)OCCO2,-43,19,-1.1,-1%,-43,
Cc1noc(C)c1S(=O)(=O)N1CCC(C(=O)N2CCN(Cc3ccc4c(c3)OCO4)CC2)CC1,-3,-7,-0.1,.,-34,
O=C1CCCC2=C1C(Cc1ccccc1)C1=C(CCCC1=O)O2,-2,-3,0.3,-4%,-1,
CCCNC(=O)Cn1c(=O)oc2ccccc21,3,-4,-2.8,-4%,-15,
O=C(O)c1cc(-c2cccs2)[nH]n1,1,1,0.2,3%,.,
COC(=O)[C@H](Cc1ccccc1)NC(=O)NCCc1ccc(S(N)(=O)=O)cc1,9,8,2.5,-7%,-21,

# Ordered by length of the SMILES (lowest first): 19 of the compounds above
SMILES,Arbovirus anti,Mtb betalactam,RecA intein inh,Mtb H37Rv,YopH PTP inh,others
O=Cc1ccc2cccnc2n1,-3,-3,1.0,11%,.,
CCOC(=O)c1c(OCCO)noc1N,4,4,7.4,3%,.,
O=C(O)c1cc(-c2cccs2)[nH]n1,1,1,0.2,3%,.,
CCCNC(=O)Cn1c(=O)oc2ccccc21,3,-4,-2.8,-4%,-15,
Cc1ccsc1-c1n[nH]c(=S)n1CC(C)C,2,-7,0.0,2%,-43,
CCn1cc(CNC(=O)NC2CCCCC2)c(C)n1,-7,5,1.3,-4%,-28,
CCN1CCN(Cc2coc3ccc(C)cc3c2=O)CC1,3,-4,1.4,-6%,-35,
O=C(CNC(=O)COc1ccccc1)NCCc1ccccn1,3,-13,2.5,-9%,.,
O=C(CCN1CCc2ccccc2C1)c1ccc2c(c1)OCCO2,-43,19,-1.1,-1%,-43,
O=C1CCCC2=C1C(Cc1ccccc1)C1=C(CCCC1=O)O2,-2,-3,0.3,-4%,-1,
CCCNC(=O)Nc1ccc2c(c1)N(C)C(=O)c1ccccc1S2,-8,-4,-5.4,-1%,-4,
O=C1CCCN1c1ccc(S(=O)(=O)NCCc2ccc(Cl)cc2)cc1,5,-3,-0.4,5%,-7,
CCOc1ccccc1NC(=O)NC(=O)N(C)S(=O)(=O)c1ccc(C)cc1,7,13,3.1,15%,.,
Cc1ccc(C2=NS(=O)(=O)N(C)C(C(=O)NCc3ccccc3)=C2)cc1,.,4,-6.7,.,.,
CCOc1ccc(C(=O)NCC(=O)NC(C)c2ccc(-n3ccnc3)cc2)cc1OCC (stereo unspecified),.,-25,0.4,.,.,
COC(=O)[C@H](Cc1ccccc1)NC(=O)NCCc1ccc(S(N)(=O)=O)cc1,9,8,2.5,-7%,-21,
CC(Sc1nnc(-c2cccs2)n1Cc1ccccc1)C(=O)NCc1ccc2c(c1)OCO2 (stereo unspecified),-17,-19,0.3,8%,-6,
COc1ccc(CC(=O)OCC(=O)Nc2cc(S(=O)(=O)N3CCOCC3)ccc2N2CCCC2)cc1,18,8,-0.8,3%,.,
Cc1noc(C)c1S(=O)(=O)N1CCC(C(=O)N2CCN(Cc3ccc4c(c3)OCO4)CC2)CC1,-3,-7,-0.1,.,-34,

# More records:
SMILES,Arbovirus anti,Mtb betalactam,RecA intein inh,Mtb H37Rv,YopH PTP inh,others
Cc1ccc(-c2ccnc3c(Br)c(C)nn23)cc1,.,45,0.9,.,.,
CCn1cc(S(=O)(=O)Nc2ncccn2)cn1,.,-13,-5.4,.,.,
CC1CC(C)CN(S(=O)(=O)c2ccc(NC(=O)C3CSC4(C)CCC(=O)N34)cc2)C1 (stereo unspecified),.,-10,2.6,.,.,
O=S(=O)(c1cccc2nsnc12)N1CCc2ccccc2C1,3,-2,-2.9,2%,-3,
COc1cc2c(cc1OC)C(NC(=O)C(F)(F)F)C/C2=N\O (stereo unspecified),0,-1,-2.9,1%,.,
O=C(c1cc(-c2ccc(O)cc2)on1)N1CCN(c2ccc(F)cc2)CC1,.,10,5.7,.,.,
Cc1cc(C)cc(NS(=O)(=O)c2ccc(Oc3ncc(C(F)(F)F)cc3Cl)cc2)c1,-39,21,6.0,-4%,-56,
C#Cc1ccc([C@@H]2C=C(C(=O)N3CCN(Cc4ccc5c(c4)OCO5)CC3)O[C@H](OCC)[C@H]2CCCO)cc1,-15,-1,7.2,1%,.,
CC(C)c1ccc(C2NC(=O)CCC2[N+](=O)[O-])cc1 (stereo unspecified),-4,4,-1.9,-5%,.,
CC(=O)c1cc2c(cc1NC(=O)CSc1nc3ccccc3o1)OCO2,13,10,-3.3,-15%,-7,
Cc1onc(-c2c(F)cccc2Cl)c1C(=O)OCC(=O)NC(c1ccccc1)c1ccccc1,4,.,3.2,-3%,-10,
COC(=O)c1ccc(SCC(=O)NC2CCCCC2)c([N+](=O)[O-])c1,2,1,-3.6,0%,-26,
Cn1c(NC(=O)COc2ccccc2)cc(=O)n(C)c1=O,5,-3,1.2,1%,8,
C=CCN1C(=O)C(O)(CC(=O)c2ccc(OC)cc2OC)c2cc(Br)ccc21 (stereo unspecified),-13,-10,-1.5,-3%,-22,
Cc1ccc(S(=O)(=O)n2c(=O)oc3ccccc32)cc1,2,-6,-11,4%,.,
CCCC1(c2ccccc2)NC(=O)N(CC(=O)NCc2ccc(C)cc2)C1=O (stereo unspecified),.,-2,-0.5,.,.,
CC(=O)OCC(=O)[C@@]1(O)[C@H](C)C[C@H]2[C@@H]3CCC4=CC(=O)C=C[C@]4(C)[C@@]3(F)[C@@H](O)C[C@@]21C,28,-2,0.1,-11%,-45,
C=CCNc1nc2c3ccccc3n(C(C)=O)c2s1,-1,-3,7.8,-4%,49,
Cc1ccccc1NC(=O)c1sc(Cl)nc1-c1ccccc1,-6,-13,-0.2,2%,-9,
C/C(=N\NC(=O)c1cc2ccccc2cc1O)c1cc2ccccc2o1,.,68,-2.5,?,.,
C=C(C)C(=O)Nc1cccc(C2=NOC3(C2)C[C@H](C(N)=O)N(C(=O)c2ccccc2)C3)c1 (stereo partly specified),.,-6,-1.6,-5%,.,
O=C1N(c2ccccc2)C2CS(=O)(=O)CC2N1c1ccc(Br)cc1 (stereo unspecified),4,1,-4.9,-2%,13,
CN(CC(=O)NCCCc1ccccc1)S(=O)(=O)c1ccc(Br)cc1,.,-9,0.1,.,.,
CCOC(=O)C(NC(=O)c1ccccc1Cl)(Nc1ccc(C(F)(F)F)cc1)C(F)(F)F (stereo unspecified),1,-3,5.2,15%,-8,
Cc1ccc(C2SCCN2C(=O)c2ccc([N+](=O)[O-])cc2)cc1 (stereo unspecified),17,1,1.9,3%,-16,

# (more compounds)
SMILES,Arbovirus anti,Mtb betalactam,RecA intein inh,Mtb H37Rv,YopH PTP inh,others
CC(=O)c1cccc(NC(=S)NCCC2=CCCCC2)c1,-2,57,1.0,14%,-28,
Cc1ccc(S(=O)(=O)c2c(C)cc(C)[nH]c2=O)c(C)c1,.,1,-0.6,.,.,
CCOC(=O)C1=NNC2(c3ccc(Cl)cc3)C(=O)N(c3ccc(C)cc3)C(=O)C12 (stereo unspecified),-5,6,-1.7,-4%,-9,
COCCn1c(=NC(=O)c2ccc3c(c2)OCCO3)sc2cc(S(N)(=O)=O)ccc21,-5,0,5.7,-1%,.,
COc1ccccc1N1CCN(C2CCCN(S(=O)(=O)c3ccccc3)C2)CC1 (stereo unspecified),.,?,2.6,.,.,
O=C(NC1CCCCCC1)C1c2ccccc2C(=O)N1Cc1cccnc1 (stereo unspecified),-5,-13,-2.1,-1%,27,

# Entries from the list above with a tert-butyl group:
SMILES,Arbovirus anti,Mtb betalactam,RecA intein inh,Mtb H37Rv,YopH PTP inh,others
CC(C)(C)c1nc2c(s1)CCc1onc(-c3ccc(Br)cc3)c1-2,.,-9,1.6,-2%,.,
CC(C(=O)NC(C)(C)C)N1C(=O)c2cccc3cccc(c23)C1=O (stereo unspecified),6,-1,-0.8,0%,.,

# Only part of the results is shown, so the mix of outcomes need not match the whole.
